Screens: PubChem BioAssay, National Center for Advancing Translational Sciences (NCATS)
Rango-impB inh – qHTS Assay for Inhibitors of Rango (Ran-regulated importin-beta cargo) - Importin beta complex formation; 340,000 compounds, 0.031% hits; AID 540263, 2011; Rango CFP/YFP FRET sensor + importin beta, 45 min; Potency, µM (top dose mostly 92.2 µM), for the others: top-dose inhibition of complex formation; active = rising FRET ratio curve, often small or poorly fitted; inconclusive = mostly compound fluorescence or quenching in the first reads; inactive = flat curves in all reads;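 further: potency means the concentration at half of the fitted maximal effect; 0% = DMSO wells and 100% = buffer wells lacking importin beta; nearly all actives have a fitted effect of over 15% in size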
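FRET biosensor (snurportin 1 IBB flanked by EYFP and cerulean), 50 nM, with compound 5 min, then 0.125 microM importin beta in PBS, 1 mM DTT, 0.02% Tween-20, 0.1% BSA. CFP/YFP ratio read after 45 min at room temperature; pre-read flags interference.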
GLA inh pH 4.5 – qHTS Assay for Inhibitors of Human alpha-Galactosidase at pH 4.5. Alpha-galactosidase A (Homo sapiens), P06280. purified enzyme, 4-MU-alpha-Gal fluorescence, pH 4.5. activity change, negative = inhibition, % at 105 µM. 230,000 tested, under 10 active. AID 1467, 2008; inconclusive = small, poorly fitted or top-dose-only inhibition, or a rising curve; inactive = flat fitted curve, though single readings scatter; no compound was filed as active;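 further: 0% = full activity with enzyme and -100% = basal without enzyme; dose as in the result columns while the protocol names 77 µM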
Target sequence (P06280 whole entry, looked up): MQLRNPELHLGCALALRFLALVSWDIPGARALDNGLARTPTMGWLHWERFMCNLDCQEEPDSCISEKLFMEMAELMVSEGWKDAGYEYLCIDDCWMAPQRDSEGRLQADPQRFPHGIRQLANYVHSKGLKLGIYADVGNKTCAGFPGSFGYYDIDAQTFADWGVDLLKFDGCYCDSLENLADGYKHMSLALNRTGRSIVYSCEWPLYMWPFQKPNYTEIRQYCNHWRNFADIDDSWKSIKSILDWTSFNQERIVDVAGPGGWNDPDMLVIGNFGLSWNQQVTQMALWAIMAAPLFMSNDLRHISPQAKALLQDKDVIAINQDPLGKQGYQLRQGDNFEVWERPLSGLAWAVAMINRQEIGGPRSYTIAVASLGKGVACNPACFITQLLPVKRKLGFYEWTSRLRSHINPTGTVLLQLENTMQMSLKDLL
Rango dissoc inh – qHTS Assay for Inhibitors of RanGTP induced Rango (Ran-regulated importin-beta cargo) - Importin beta complex dissociation | Snurportin-1 (Homo sapiens) + GTP-binding nuclear protein Ran (Homo sapiens) + Importin … | Biochemical FRET Rango-importin beta, RanGTP-induced dissociation | Potency, µM (doses to about 46.1 µM), without a hit: at the top dose activity change, negative = inhibition | 340,000 compounds, 0.071% hits | AID 540253, 2011; active means falling FRET ratio curve, often poorly fitted, with flat reads before Ran was added; inconclusive means other falling curves, or compound fluorescence or quenching; inactive means flat or rising ratio curve;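 further: potency means the concentration at half of the fitted maximal effect; % of control where 0% means no effect; nearly all actives have a fitted effect of over 45% in size; -100% = wells without RanGTP and RCC1; the record marks most hits as doubtful in a second field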
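Compounds sat 5 min at room temperature with 0.1 uM Rango biosensor plus 0.25 uM importin beta, then FRET pre-read. RanGTP-RCC1 (0.6 uM Ran, 2mM GTP, 0.2 uM RCC1) added for 45 min, and the CFP/YFP post-read measured blocked complex dissociation.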
miR-21 reporter – qHTS Assay for Modulators of miRNAs and/orActivators of miR-21; HeLa miR-21 FLuc reporter, luciferase, 48 h; Potency, µM (series often up to 38.3 µM), for inactives: at the top dose reporter change, positive = more light; 340,000 tested, under 10 active; AID 2288, 2010; active = well fitted rising curve with a large enough effect; inconclusive = small, poorly fitted or top-dose-only effect; inactive = no such curve, though single readings can be large or run the other way;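 further: % of control where 0% means no effect; miR-21 action dims this reporter so a rising signal means less miR-21 action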
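HeLa miR-21-FLuc reporter line, endogenous miR-21; 2000 cells/well in DMEM/10% FBS; compound titration up to ~40uM final, 48 h, 37 degree Celsius; luciferase detection reagent, 15 min lysis, CCD luminescence.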
* hit, by the source's call; ? = inconclusive; nt = not tested or not shown; & = joins results of further samples.

cpd	Compound	Rango-impB inh	GLA inh pH 4.5	Rango dissoc inh	miR-21 reporter
1	Cc1ccc(C(=O)N2N=C(c3ccc(NS(C)(=O)=O)cc3)CC2c2cccs2)cc1 (stereo unspecified)	0.1%	nt	?	-6%
2	O=S(=O)(Nc1ccc2c(c1)OCCO2)c1c(F)cccc1F	0.3%	nt	-11%	-5%
3	COc1ccccc1CNC(=O)COC(=O)Cc1ccc(Cl)cc1	0.4%	-2	-11%	-3%
4	O=C(Nc1cccc(C(F)(F)F)c1)c1cccnc1N1CCN(CCO)CC1	1.5%	3	2%	-10%
5	Cc1ccc2oc(-c3cccc(NC(=S)NC(=O)c4cccs4)c3)nc2c1	0.6%	-4	6%	-64%
6	COc1cc2c(cc1OC)CN(C(=O)CCNS(=O)(=O)c1ccccc1F)CC2	-2.8%	nt	0%	-1%
7	O=C(c1ccc(S(=O)(=O)N2CCOCC2)cc1)N1CCN(S(=O)(=O)c2ccc(Cl)s2)CC1	4.4%	0	10%	-1%
8	Cc1ccc(S(=O)(=O)N2CCCC2C(=O)NCCc2nc3ccccc3[nH]2)cc1 (stereo unspecified)	-3.2%	4	10%	0%
9	CC[C@H](C)[C@@H]1NC(=O)c2cc([N+](=O)[O-])cc(I)c2SC[C@@H](C(N)=O)NC(=O)[C@H](CCCCN)NC1=O	-2.7%	7	-6%	-8%
10	N#Cc1ccccc1OCC(=O)Nc1ccc(N2CCOCC2)cc1N1CCOCC1	-1.0%	nt	-19%	nt
11	CCn1c(C)cc(=S)c2ccccc21	3.7%	-4	8%	-1%
12	O=C1OC2(CCCCC2)OC(=O)C1=CNc1ccc2c(c1)OCO2	-0.2%	6	0%	0%

Other records follow:
cpd	Compound	Rango-impB inh	GLA inh pH 4.5	Rango dissoc inh	miR-21 reporter
13	Cc1cccc(NS(=O)(=O)c2ccc(C)c(C(=O)NCC(c3cccs3)N3CCOCC3)c2)c1 (stereo unspecified)	-3.3%	nt	19%	nt
14	Cc1ccc(NC(=S)NC2CCCCC2)cc1S(=O)(=O)N(C)C	-0.3%	-6	1%	-23%
15	O=C(C(Sc1ccccc1)c1ccc(Br)cc1)N1CCOCC1 (stereo unspecified)	-3.0%	-1	-8%	1%
16	CCC(C)N(C(=O)c1csnn1)C(C(=O)NC1CCCC1)c1ccc(F)cc1 (stereo unspecified)	-1.5%	nt	-14%	-1%
17	CC(C)CCN1C(=O)c2ccc(C(=O)Nc3ccc(O)cc3C(=O)O)cc2C1=O	-0.3%	nt	-3%	5%
18	COCCNC(=O)c1ccc(CS(=O)(=O)c2c(Cl)cccc2Cl)o1	0.5%	5	25%	2%
19	CCOC(=O)[C@@H]1[C@H]2COc3ccccc3[C@@H]2N2C(=O)N(c3ccc(Cl)cc3)C(=O)[C@@]12C	-2.3%	nt	0%	-4%
20	COc1ccc(CCNC(=O)c2ccc(CNS(=O)(=O)c3cccc(Cl)c3)cc2)cc1OC	5.6%	-1	-8%	19%
21	CCCCc1nc2cc(C(=O)N3CCNC(=O)C3)ccc2o1	-2.5%	nt	10%	-6%
22	OCC1(Cc2ccccc2)CCN(CCCC2CCCC2)CC1	0.9%	-11	-7%	4%
23	COc1ccc(N2CCN(C(=O)CC(C)S(=O)(=O)c3ccc4c(c3)NC(=O)CO4)CC2)cc1 (stereo unspecified)	-0.4%	nt	3%	29%
24	C=CCn1c(SCCCc2ccccc2)nc2c1c(=O)[nH]c(=O)n2C	-1.5%	7	1%	-23%

Going on with the list.
cpd	Compound	Rango-impB inh	GLA inh pH 4.5	Rango dissoc inh	miR-21 reporter
25	CCOCCSc1n[nH]c(=O)n1CCc1ccccc1	0.2%	nt	17%	-11%
26	CCOC(=O)C1=C(COC(=O)Cc2ccc(Br)cc2)NC(=O)NC1C (stereo unspecified)	-4.4%	nt	15%	-2%
27	C=CCOc1cccc(C2C(C(=O)c3ccc(C)o3)=C(O)C(=O)N2c2nccs2)c1 (stereo unspecified)	?	-4	?	-14%
28	CCOC(=O)CSc1nc2cccnc2n1-c1ccc(F)cc1	-3.1%	4	-6%	2%
29	C/C(CC(=O)Nc1ccc2ccccc2c1)=N\NC(=O)c1ccc(O)c(O)c1	0.1%	nt	-1%	-35%
30	O=C(NC(c1ccccc1)c1c(O)ccc2ccccc12)c1ccccc1Cl (stereo unspecified)	1.5%	-3	11%	-3%
31	NC(=O)Cn1nnc(-c2ccccc2NC(=O)c2cnccn2)n1	-2.3%	-4	1%	-1%
32	O=C(NC(=S)Nc1ccc([N+](=O)[O-])cc1O)C1CCCCC1	-2.4%	nt	15%	-6%
33	COCCNC(=O)C(c1cccs1)N(Cc1cccs1)C(=O)Cn1nnc2ccccc21 (stereo unspecified)	2.2%	4	7%	-7%
34	Cc1ccccc1C(=O)Oc1cccc(Nc2ncnc3ccccc23)c1	3.5%	nt	-9%	nt
35	Cc1ccc(SCc2[nH]nc3c2C2(C(=O)N(C)c4ccccc42)C(C#N)=C(N)O3)cc1 (stereo unspecified)	-1.9%	-3	-3%	15%
36	Cc1cccc(N2CCN(C(=O)c3ccc4c(c3)c(C)c(C)n4C)CC2C)c1 (stereo unspecified)	-0.1%	nt	1%	-1%&-6%

(listing goes on)
cpd	Compound	Rango-impB inh	GLA inh pH 4.5	Rango dissoc inh	miR-21 reporter
37	Cc1ccc(C2CC(c3ccc(Cl)cc3)=NNC2=O)cc1 (stereo unspecified)	0.3%	1	1%	12%
38	C/C(=N\Nc1nccnc1Cl)c1c(F)c(F)c(F)c(F)c1F	-2.2%	-1	-1%	-23%
39	COC(=O)[C@@]1(Cc2ccccc2)[C@H]2C(=O)N(Cc3ccccc3)C(=O)[C@H]2[C@H]2CN=C(SCC3CC3)N21	1.1%	nt	-2%	nt
40	COc1ccnc(N=CNOCc2cccc(C(F)(F)F)c2)c1C#N	2.9%	-4	6%	-8%
41	Cc1ccc(NC(=O)C(C)OC(=O)/C=C/c2ccccc2)cc1S(=O)(=O)N1CCOCC1 (stereo unspecified)	-0.3%	nt	?	nt
42	Cc1ccc2c(c1)-c1[nH]c(=S)ncc1CS2	2.1%	7	5%	4%
43	COc1ccc(NC(=O)C23CC4CC(C2)CC(n2cnc(Br)n2)(C4)C3)c(OC)c1	-0.8%	6	-2%	1%
44	Cc1cc(Br)ccc1OCC(=O)NNC(=O)Cc1ccccc1	-4.8%	2	-4%	-2%
45	COc1cccc(NC(=O)COC(=O)CCOc2ccccc2OC)c1	-1.4%	5	-16%	4%
46	Oc1c(CN2CCN(c3ccc(F)cc3)CC2)cc(Cl)c2cccnc12	-0.8%	2	4%	23%
47	COC(=O)c1ccc(/C=N/OCC(=O)NC2CCCCCCC2)cc1	-2.3%	-15	-1%	-2%
48	CN(C)C(=O)c1ccc(NC(=O)c2cncc(Br)c2)cc1	2.4%	1	-4%	-13%

Continued:
cpd	Compound	Rango-impB inh	GLA inh pH 4.5	Rango dissoc inh	miR-21 reporter
49	O=C(Nc1cccc(NC(=O)c2ccccc2F)c1)c1ccccc1	-3.1%	nt	-5%	-10%&-14%
50	Cc1cc(C(=O)NC2CCCCCC2)c2ccccc2n1	-3.3%	nt	3%	nt
51	CC1(C)CC(NS(=O)(=O)OCC(Cl)(Cl)Cl)c2cc(C#N)ccc2O1 (stereo unspecified)	-1.9%	nt	?	-1%
52	CCOC(=O)N1CCN(C(=O)CCc2nc3sc4c(c3c(=O)[nH]2)CCCC4)CC1	2.6%	-2	0%	-4%
53	Cc1ccccc1N=CC=C1OC(C)(C)C(C)(C)O1	?	6	11%	-15%
54	CC1CN(C(=O)c2ccccc2NS(=O)(=O)c2ccc(Cl)cc2)CC(C)O1 (stereo unspecified)	-1.1%	nt	-4%	nt
55	O=C(CN1C(=O)C2C3c4ccccc4C(c4ccccc43)C2C1=O)N1CCOCC1 (stereo unspecified)	-0.6%	-15	7%	0%
56	Cc1ccc(-c2cc(-c3ccccc3)nc(Cl)n2)cc1	6.6%	-7	2%	-4%
57	COc1ccccc1NC(=S)N1CCNC(=O)C1CC(=O)Nc1cccc(C)c1 (stereo unspecified)	-1.3%	7	16%	-1%
58	CC(=O)NCCC(=O)NCC1(N(C)Cc2ccccc2)Cc2ccccc2C1	-0.3%	nt	6%	1%
59	CC(=O)Nc1nc2ccc(C(=O)NC3CCCCC3)cc2s1	-1.1%	-8	-7%	-29%
60	CC(=O)C1=C(O)C(=O)N(c2ccc(Br)cc2)C1c1ccc(Br)cc1 (stereo unspecified)	0.2%	nt	14%	-4%

Entries 57–60, quoted:
cpd	Compound	Rango-impB inh	GLA inh pH 4.5	Rango dissoc inh	miR-21 reporter
57	COc1ccccc1NC(=S)N1CCNC(=O)C1CC(=O)Nc1cccc(C)c1 (stereo unspecified)	-1.3%	7	16%	-1%
58	CC(=O)NCCC(=O)NCC1(N(C)Cc2ccccc2)Cc2ccccc2C1	-0.3%	nt	6%	1%
59	CC(=O)Nc1nc2ccc(C(=O)NC3CCCCC3)cc2s1	-1.1%	-8	-7%	-29%
60	CC(=O)C1=C(O)C(=O)N(c2ccc(Br)cc2)C1c1ccc(Br)cc1 (stereo unspecified)	0.2%	nt	14%	-4%

The results go on:
cpd	Compound	Rango-impB inh	GLA inh pH 4.5	Rango dissoc inh	miR-21 reporter
61	CN(Cc1cn(C)c2ccccc12)C(=S)Nc1cc(F)cc(F)c1	-0.7%	-7	3%	-2%
62	O=C1NC(=S)SC1=C1CCCC1	3.5%	-5	-11%	-4%
63	O=C(c1ccc(Cn2cc(Cl)c([N+](=O)[O-])n2)cc1)N1CCN(Cc2ccccc2)CC1	1.3%	-5	-16%	15%
64	Cc1ccc(SC2=C(N(C)C)C(=O)c3ccccc3C2=O)cc1	0.9%	nt	-2%	nt
65	COCCn1nnnc1C(c1cc2cc(OC)c(OC)cc2[nH]c1=O)N1CCN(c2ccc(O)cc2)CC1 (stereo unspecified)	?	-6	8%	1%
66	O=C(c1cccc(F)c1)N1CCN(S(=O)(=O)c2ccc(C(F)(F)F)cc2)CC1	-2.9%	-1	-11%	-7%
67	Cc1cc(C)cc(OC2CCCCC2NS(=O)(=O)c2ccccc2)c1 (stereo unspecified)	0.1%	0	-2%	-15%
68	Cc1cc(Br)ccc1OCC(=O)NNC(=O)CCc1ccccc1	-2.4%	nt	-14%	1%
69	COc1ccc2ccccc2c1/C=N/NC(=O)c1cccc(C)c1	-0.2%	nt	1%	nt
70	CC(NC(=O)COC(=O)c1nc(Cl)ccc1Cl)c1ccccc1 (stereo unspecified)	-0.7%	nt	-6%	nt
71	COc1cccc(NC(=O)c2nn(C34CC5CC(CC(C5)C3)C4)cc2[N+](=O)[O-])c1	-1.4%	-3	-12%	-8%
72	Cc1cc(=O)n(-c2ccc(O)cc2)[nH]1	2.3%	0	-24%	-4%

Next part:
cpd	Compound	Rango-impB inh	GLA inh pH 4.5	Rango dissoc inh	miR-21 reporter
73	Cc1nc2nc(C)c(CCC(=O)NCCC3=CCCCC3)c(C)n2n1	4.1%	-5	10%	0%
74	COc1ccc(C2Nc3ccccc3C(=O)N2Cc2ccccc2)cc1COc1ccccn1 (stereo unspecified)	1.6%	-27	10%	1%
75	COc1ccc(Cl)cc1-c1nc(-c2ccncc2)no1	-1.0%	-10	8%	-11%
76	CCC(=O)c1ccc(OCC(O)Cn2nc(C)cc2C)cc1 (stereo unspecified)	-4.6%	nt	-19%	-5%
77	CN1CCN(CCCNC(=O)Nc2ccc([N+](=O)[O-])cc2)CC1	2.8%	nt	-14%	-1%
78	O=[N+]([O-])c1cccnc1S(=O)(=O)c1ccccc1	-3.0%	nt	0%	?
79	COc1ccc(CCNC(=O)C2CC(c3cc(C(F)(F)F)cc(C(F)(F)F)c3)=NO2)cc1 (stereo unspecified)	-0.6%	-11	-5%	0%
80	CCOC(=O)C(NS(=O)(=O)c1ccc(Br)cc1)C(C)C (stereo unspecified)	2.7%	1	-9%	-7%

Only part of the results is shown; the hit share may differ from the screen's.
